Vaccinia inh – blocks a specific stage of Vaccinia orthopoxvirus infection, primary screen, cell-based, single point; Vaccinia-infected cells, mCherry/Venus stage reporter fluorescence; stronger effect = lower value; some inactives read as strong as hits; activity change (mCherry), % (no concentration beside the values); actives 0.01% (n = 89,000); AID 1053133, 2014;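 active = mCherry past -33% and 40 or more points under the early reporter, replicates agreeing; inconclusive = past -33% without that gap or agreement; tested in A549 cells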;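 note: scaled between vehicle wells and reference inhibitor wells; 23 nL library stock went into each well; one replicate is shown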
Vaccinia inh Venus – also measured in Vaccinia inh; calls as there; activity change (Venus), %; measured here: Venus reporter, other viral stage;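 negative = less Venus signal; first of two replicates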
* marks the source's active call; other numbers are inactive results; ? = inconclusive; / = not tested or not shown.

SMILES	Vaccinia inh	Vaccinia inh Venus
C[C@H](CO)N1C[C@H](C)[C@H](CN(C)S(=O)(=O)c2ccc(C#N)cc2)OCc2ccccc2-c2ccccc2C1=O	-11.9	-12.9
C[C@H](CO)N1C[C@H](C)[C@H](CN(C)Cc2ccc3c(c2)OCO3)Oc2c(NC(=O)Nc3ccc(C(F)(F)F)cc3)cccc2C1=O	?	/
O=C(C[C@H]1C=C[C@H](NC(=O)Nc2ccc(C(F)(F)F)cc2)[C@H](CO)O1)NCc1cc(F)cc(F)c1	-1.9	-2.5
CO[C@H](CN(C)C(=O)c1ccc2c(c1)OCO2)[C@H](C)CN([C@@H](C)CO)S(=O)(=O)c1ccc(Cl)cc1	-1.4	-3.2
C[C@H](NC(=O)[C@@H]1[C@@H](CO)[C@@H]2Cn3c(cccc3=O)[C@H]1N2CCC(F)(F)F)c1ccccc1	8.9	4.7
COc1ccc(S(=O)(=O)N(C)C[C@@H]2Oc3ccc(NC(=O)Cn4cnnn4)cc3CC(=O)N([C@@H](C)CO)C[C@H]2C)cc1	17.6	12.5
NCC[C@H]1CC[C@@H](NS(=O)(=O)Cc2ccccc2)[C@H](CO)O1	6.6	8.0
CCCNC(=O)N1C[C@@H](O)COC[C@H]2O[C@H](CC(=O)N[C@@H]3CCN(Cc4ccccc4)C3)CC[C@@H]21	6.8	19.5
C/C=C/c1ccc([C@H]2[C@@H](CO)N(C(C)=O)[C@@H]2CNC(=O)NCCC)cc1	1.6	1.0
CN(C)CCCNC(=O)C[C@H]1CC[C@H]2[C@@H](COc3ccc(NC(=O)NC4CCCC4)cc3C(=O)N2C)O1	11.6	8.8
CNC[C@@H]1Oc2ccc(NS(=O)(=O)c3ccc(C)cc3)cc2C(=O)N([C@H](C)CO)C[C@@H]1C	9.9	5.4
Cc1ccc(S(=O)(=O)N(C)C[C@H]2Oc3c(NC(=O)c4ccncc4)cccc3C(=O)N([C@H](C)CO)C[C@H]2C)cc1	2.9	8.8
CCCNC(=O)Nc1ccc2c(c1)OC[C@H](C)N(C(=O)CC)C[C@H](C)[C@@H](OC)CN(C)C2=O	18.7	8.7
COC(=O)[C@@H]1[C@@H](CO)[C@@H]2Cn3c(ccc(-c4ccccc4)c3=O)[C@@H]2N1Cc1cccc(F)c1	-5.5	-5.8
O=C(C[C@H]1C[C@@H]2c3cc(NC(=O)c4cccnc4)ccc3O[C@@H]2[C@H](CO)O1)NCc1cccc(F)c1	24.0	18.9
CCC(=O)N[C@@H]1C=C[C@@H](CC(=O)NCc2ccccc2OC)O[C@@H]1CO	0.3	7.2
C[C@@H]1CN([C@@H](C)CO)C(=O)Cc2cc(NC(=O)Nc3ccc(C(F)(F)F)cc3)ccc2O[C@@H]1CN(C)Cc1ccc(C(=O)O)cc1	8.0	12.4
COCCNC(=O)C[C@H]1CC[C@@H]2[C@H](COc3ccc(NC(=O)c4cc(C)on4)cc3C(=O)N2C)O1	9.6	10.0
CN1[C@@H]2Cn3c(ccc(C4=CCCCC4)c3=O)[C@H]1[C@@H](C(=O)NCc1cc(F)cc(F)c1)[C@@H]2CO	-13.2	-7.1
COc1ccccc1NC(=O)N1C[C@@H]2[C@H](c3ccccc31)[C@H](CO)N2CC1CCOCC1	15.3	11.7
O=C(C[C@@H]1C[C@@H]2c3cc(NC(=O)C4CCC4)ccc3O[C@@H]2[C@@H](CO)O1)NC1CCCCC1	-1.6	-3.6
C[C@@H]1CCCCO[C@H](CN(C)S(=O)(=O)c2cccs2)[C@@H](C)CN([C@H](C)CO)C(=O)c2cc(NC(=O)CCCN(C)C)ccc2O1	-9.6	-10.4
COc1ccc(C#Cc2cnc3c(c2)C(=O)N([C@H](C)CO)C[C@@H](C)[C@H](CN(C)C(=O)c2ccccc2F)O3)cc1	?	/
CCC(=O)N(C)C[C@@H]1Oc2cc(-c3ccccc3F)ccc2S(=O)(=O)N([C@H](C)CO)C[C@H]1C	2.7	4.1
CCCNC(=O)C[C@@H]1CC[C@H]2[C@H](COc3ccc(NC(=O)NCCC)cc3C(=O)N2C)O1	11.9	9.8
Carrying on:
SMILES	Vaccinia inh	Vaccinia inh Venus
C/C=C/c1ccc2c(c1)O[C@H](CN(C)Cc1cccnc1)[C@H](C)CN([C@H](C)CO)S2(=O)=O	-8.3	-10.7
C[C@@H]1CN([C@@H](C)CO)C(=O)c2cccc(N(C)C)c2O[C@H]1CN(C)C(=O)Nc1ccc2c(c1)OCO2	1.8	-7.5
COc1ccc(S(=O)(=O)Nc2ccc3c(c2)C(=O)N([C@H](C)CO)C[C@H](C)[C@H](CN(C)C(=O)Nc2c(C)noc2C)OCCCC[C@H](C)O3)cc1	8.8	10.4
CCCC#Cc1cnc2c(c1)C(=O)N([C@H](C)CO)C[C@H](C)[C@@H](CN(C)C(=O)Nc1cccc(F)c1)O2	7.7	5.0
C[C@H](CO)N1C[C@H](C)[C@@H](CN(C)S(=O)(=O)c2cccs2)Oc2ccc(NC(=O)NC3CCCCC3)cc2C1=O	0.4	4.2
C[C@@H]1CN([C@H](C)CO)C(=O)c2cc(NC(=O)CCC(F)(F)F)ccc2O[C@@H](C)CCCCO[C@H]1CN(C)Cc1ccc(C(F)(F)F)cc1	?	/
CNC[C@H]1OCCCC[C@@H](C)Oc2ccc(NC(=O)Nc3ccccc3)cc2C(=O)N([C@@H](C)CO)C[C@H]1C	-6.1	-4.3
C[C@@H]1CN([C@@H](C)CO)C(=O)c2cc(-c3ccccc3F)cnc2O[C@@H]1CN(C)Cc1cccc(F)c1	?	/
CCCC#Cc1cnc2c(c1)C(=O)N([C@@H](C)CO)C[C@H](C)[C@H](CN(C)C(=O)Cc1cccnc1)O2	6.9	6.8
C[C@H](O)C#Cc1cnc2c(c1)C(=O)N([C@@H](C)CO)C[C@@H](C)[C@@H](CN(C)C(=O)CC1CC1)O2	3.9	0.9
CO[C@H]1CN(C)C(=O)c2ccc(NS(=O)(=O)CC(F)(F)F)cc2OC[C@@H](C)N(Cc2nccs2)C[C@@H]1C	13.2	17.4
CCCNC(=O)N1[C@H](CO)[C@@H](c2ccccc2-c2ccccc2F)[C@@H]1C#N	-2.5	-8.0
Cc1ccc(S(=O)(=O)N2CC[C@@H]3[C@H]2c2cc(C#Cc4cccc(F)c4)ccc2N[C@@H]3CO)cc1	5.2	0.4
CN(C)C(=O)c1cccc(-c2ccc([C@@H]3[C@H]4CN(C(=O)CC5CC5)CC(=O)N4[C@H]3CO)cc2)c1	9.3	4.9
C[C@@H]1CN([C@@H](C)CO)C(=O)Cc2cc(NC(=O)Cc3cn(C)c4ccccc34)ccc2O[C@H]1CN(C)S(=O)(=O)c1cccs1	-20.4	-19.3
C[C@H]1CN([C@@H](C)CO)C(=O)c2cccc(NC(=O)Nc3ccc(F)cc3)c2O[C@H]1CN(C)C(=O)Nc1ccc2c(c1)OCO2	?	/
O=C(C[C@@H]1C[C@H]2c3cc(NC(=O)NC4CCCC4)ccc3O[C@H]2[C@H](CO)O1)NCC1CC1	14.3	7.7
C[C@@H]1CN([C@H](C)CO)S(=O)(=O)c2ccc(C#CC3CCCC3)cc2O[C@H]1CN(C)C(=O)C1CC1	-6.5	-10.8
C[C@@H]1CN([C@@H](C)CO)C(=O)c2cc(-c3cccc(C#N)c3)cnc2O[C@@H]1CN(C)Cc1ccc(F)cc1	-7.5	-5.0
COc1ccc(C#Cc2ccc([C@@H]3[C@H](CO)N4CCCCN(Cc5ccccc5F)C[C@@H]34)cc2)cc1	-23.6	-16.8
COc1ccc(NC(=O)Nc2ccc3c(c2)C(=O)N([C@H](C)CO)C[C@@H](C)[C@H](CN(C)C)OCCCC[C@@H](C)O3)cc1	8.6	8.2
O=C(NCC1CC1)[C@H]1[C@H](CO)[C@H]2Cn3c(ccc(-c4cncnc4)c3=O)[C@H]2N1C(=O)NC1CCCC1	10.3	5.7
CCC(=O)N1CC[C@H]2[C@H](CO)Nc3ccc(-c4ccc(C(=O)N(C)C)cc4)cc3[C@H]21	3.4	3.7
CCCNC(=O)N1C[C@H](O)COC[C@H]2O[C@H](CC(=O)OC)CC[C@@H]21	0.8	-7.0
C[C@H]1CN([C@@H](C)CO)C(=O)CCCn2nncc2CO[C@@H]1CN(C)C(=O)Nc1ccc(F)cc1	10.7	-3.2

Single values from the entries so far:
Vaccinia inh Venus result of CCCC#Cc1cnc2c(c1)C(=O)N([C@H](C)CO)C[C@H](C)[C@@H](CN(C)C(=O)Nc1cccc(F)c1)O2 stands at 5.0
Vaccinia inh Venus result of CCCNC(=O)N1[C@H](CO)[C@@H](c2ccccc2-c2ccccc2F)[C@@H]1C#N stands at -8.0
Vaccinia inh Venus result of CNC[C@H]1OCCCC[C@@H](C)Oc2ccc(NC(=O)Nc3ccccc3)cc2C(=O)N([C@@H](C)CO)C[C@H]1C stands at -4.3
Vaccinia inh Venus result of C[C@@H]1CN([C@H](C)CO)S(=O)(=O)c2ccc(C#CC3CCCC3)cc2O[C@H]1CN(C)C(=O)C1CC1 stands at -10.8

More entries:
SMILES	Vaccinia inh	Vaccinia inh Venus
Cc1noc(C)c1NC(=O)N(C)C[C@H]1Oc2ccc(NC(=O)c3ccncc3)cc2CC(=O)N([C@H](C)CO)C[C@H]1C	0.1	-5.6
O=C(CC(F)(F)F)N1C[C@H]2[C@@H](c3ccccc31)[C@@H](CO)N2C(=O)c1cccnc1	0.5	5.2
C[C@H]1CN([C@@H](C)CO)C(=O)Cc2cc(N(C)C)ccc2O[C@H]1CN(C)S(=O)(=O)c1ccc(F)cc1	3.7	-2.2
O=C(NC1CCCCC1)N[C@@H]1C=C[C@@H](CC(=O)N2CCOCC2)O[C@H]1CO	-0.4	2.5
CC(C)CC#Cc1ccc2c(c1)O[C@@H](CN(C)C(=O)Cc1cccnc1)[C@H](C)CN([C@H](C)CO)S2(=O)=O	-31.8	-18.9
Cc1ccc(S(=O)(=O)N(C)C[C@@H]2Oc3ccc(NC(=O)NC4CCCCC4)cc3C(=O)N([C@@H](C)CO)C[C@@H]2C)cc1	?	/
C[C@@H]1CN([C@@H](C)CO)S(=O)(=O)c2ccc(C#Cc3ccccc3F)cc2O[C@@H]1CN(C)C(=O)Cc1cccnc1	?	/
C[C@H](CO)N1C[C@H](C)[C@@H](CN(C)C(=O)C2CCOCC2)Oc2cc(C3=CCCC3)ccc2S1(=O)=O	19.3	9.9
O=C(C[C@H]1C[C@@H]2c3cc(NC(=O)NC4CCCC4)ccc3O[C@@H]2[C@H](CO)O1)NCC1CC1	11.5	8.6
CC(C)NC(=O)Nc1ccc2c(c1)CC(=O)N([C@H](C)CO)C[C@@H](C)[C@@H](CN(C)S(=O)(=O)c1cn(C)cn1)O2	13.2	10.6
C[C@@H](NC(=O)C[C@@H]1CC[C@@H]2[C@H](COC[C@H](O)CN2C(=O)Nc2cccc(F)c2)O1)c1ccccc1	-10.3	-5.4
CNC(=O)C[C@@H]1CC[C@H]2[C@@H](COC[C@H](O)CN2C(=O)Nc2cccc(OC)c2)O1	18.2	4.7
Cc1noc(C)c1NC(=O)Nc1ccc2c(c1)CC(=O)N([C@@H](C)CO)C[C@@H](C)[C@@H](CN(C)Cc1ccc(C(=O)O)cc1)O2	3.0	10.6
CC=Cc1ccc2n(c1=O)C[C@H]1[C@H](CO)[C@@H](C(=O)N[C@H](C)c3ccccc3)[C@@H]2N1CC (mixture of isomers)	-1.4	-3.0
O=C(Nc1ccc2c(c1)[C@H]1C[C@@H](CC(=O)N3CCc4ccccc4C3)O[C@H](CO)[C@H]1O2)c1ccc2c(c1)OCO2	?	/
C[C@H](CO)N1C[C@H](C)[C@@H](CN(C)C(=O)c2ccccc2)Oc2cc(C#CC3CC3)ccc2S1(=O)=O	-21.7	-20.9
Cc1ccc(S(=O)(=O)N(C)C[C@@H]2Oc3ccc(NC(=O)Cc4cn(C)c5ccccc45)cc3CC(=O)N([C@H](C)CO)C[C@@H]2C)cc1	-34.7	-27.6
C[C@@H]1CN([C@@H](C)CO)C(=O)c2cccc(NC(=O)C3CCOCC3)c2O[C@H]1CN(C)CC1CC1	-1.7	4.1
C[C@H]1CCCCO[C@H](CN(C)Cc2ccncc2)[C@@H](C)CN([C@@H](C)CO)C(=O)c2cc(NC(=O)Nc3ccc4c(c3)OCO4)ccc2O1	-11.5	-7.3
O=C(Nc1cccc(Cl)c1)N[C@H]1CC[C@@H](CCn2cc(Cc3ccccc3)nn2)O[C@@H]1CO	-3.6	6.5
O=C(C[C@@H]1CC[C@H](NC(=O)Nc2ccccc2F)[C@@H](CO)O1)NCc1ccc(-c2ccccc2)cc1	-27.1	-23.6
C[C@@H]1CN([C@@H](C)CO)C(=O)c2cc(NC(=O)Nc3ccc4c(c3)OCO4)ccc2O[C@@H](C)CCCCO[C@@H]1CN(C)Cc1ccc(C(=O)O)cc1	10.9	4.2
CCCC(=O)N1CC2(CCN(C(C)=O)CC2)c2c(n(C)c3cc(OC)ccc23)[C@H]1CO	8.7	-7.8
C[C@@H]1CCCCO[C@@H](CN(C)C(=O)NC2CCCCC2)[C@H](C)CN([C@@H](C)CO)C(=O)c2cc(NC(=O)Nc3ccc(C(F)(F)F)cc3)ccc2O1	-21.7	-5.1
COc1ccc(CN2C[C@@H](C)[C@H](OC)CN(C)C(=O)c3cc(NC(=O)c4nc5ccccc5s4)ccc3OC[C@@H]2C)cc1	-24.7	-19.8
COc1ccc(C#Cc2ccc([C@@H]3[C@H](CO)N4CCCCN(C(=O)Nc5ccc(F)cc5)C[C@@H]34)cc2)cc1	?	/
COCC(=O)N1CC2(CN(Cc3ccccc3)C2)c2c([nH]c3cc(OC)ccc23)[C@@H]1CO	3.4	-1.5
C[C@@H]1CN([C@H](C)CO)C(=O)c2cc(N(C)C)ccc2O[C@@H]1CN(C)S(=O)(=O)c1ccc(F)cc1	18.4	5.0

Reformatted in CSV form: part of the list above
smiles,Vaccinia inh,Vaccinia inh Venus
CC=Cc1ccc2n(c1=O)C[C@H]1[C@H](CO)[C@@H](C(=O)N[C@H](C)c3ccccc3)[C@@H]2N1CC (mixture of isomers),-1.4,-3.0
O=C(Nc1ccc2c(c1)[C@H]1C[C@@H](CC(=O)N3CCc4ccccc4C3)O[C@H](CO)[C@H]1O2)c1ccc2c(c1)OCO2,?,/

Screening data from PubChem.

This is a subset; rates above refer to the full screens.
